INS promoter inh: TRM-6 insulin promoter activity inhibition. actives 0.9% (n = 130,000). TRM-6 cells (human fetal islet line), insulin promoter-eGFP reporter, imaging; reporter expression induced with tamoxifen. inhibition, % at 2 µM;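 active = inhibition above the mean plus 3 SD, with well images judged a real hit on visual review, cut at about 60% in these data, passing the limit was not always enough; inconclusive = inhibition over the cutoff but images rejected on review; inactive = inhibition not above the cutoff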
GALR2 ag: GALR2 (human) receptor agonism; GALR2-expressing cells, agonist activation read-out; O43603; actives 0.48% (n = 140,000); AID 803; activation, %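 (tested at 5 µM)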;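 active = above mean plus 3 SD of all compounds, about 5% in these data, not always enough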;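 note: 0% = vehicle buffer wells and 100% = reference agonist at full effect; tested in CHO reporter cells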
Target sequence (O43603 whole entry, looked up): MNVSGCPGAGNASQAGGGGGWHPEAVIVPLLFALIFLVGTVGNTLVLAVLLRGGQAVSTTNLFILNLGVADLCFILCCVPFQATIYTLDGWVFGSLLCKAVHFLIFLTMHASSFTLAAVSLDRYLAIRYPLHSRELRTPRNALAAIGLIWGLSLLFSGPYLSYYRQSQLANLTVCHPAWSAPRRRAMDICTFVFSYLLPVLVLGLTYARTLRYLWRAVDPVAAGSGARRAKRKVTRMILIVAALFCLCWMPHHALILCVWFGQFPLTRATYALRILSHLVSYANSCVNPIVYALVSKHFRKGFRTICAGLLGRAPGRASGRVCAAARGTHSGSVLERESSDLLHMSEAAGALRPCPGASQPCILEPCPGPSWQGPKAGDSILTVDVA
PKD1 inh: inhibitors of human PKD1 kinase | inhibition, %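 (about 10 µM by stock and volumes)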 | Q15139 | actives 0.056% (n = 200,000) | PKD1 kinase fluorescence polarization assay;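 active = inhibition of 50% or more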;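 note: controls were vehicle for no effect and a reference inhibitor for full effect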
RGS16-Gao: modulates binding between human RGS16 and Galphao; bead-based flow cytometry RGS16-Galphao binding, fluorescence; actives lie on both sides; binding response (% of control), % at 10 µM; actives 0.38% (n = 220,000); AID 1441;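 active = below 25% or above 175%, edge rows of some plates excepted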;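 note: Galphao activated by GDP with aluminum fluoride before binding; 100% = wells without compound and 0% = beads without RGS; some results beyond the cut were filed as inactive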
Target sequence (O15492 whole entry, looked up): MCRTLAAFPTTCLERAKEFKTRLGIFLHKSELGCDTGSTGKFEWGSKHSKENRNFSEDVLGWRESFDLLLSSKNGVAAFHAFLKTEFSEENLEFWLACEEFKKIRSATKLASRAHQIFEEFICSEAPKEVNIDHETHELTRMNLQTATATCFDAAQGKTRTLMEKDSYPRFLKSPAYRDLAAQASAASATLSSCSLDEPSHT
Target sequence (P09471 whole entry, looked up): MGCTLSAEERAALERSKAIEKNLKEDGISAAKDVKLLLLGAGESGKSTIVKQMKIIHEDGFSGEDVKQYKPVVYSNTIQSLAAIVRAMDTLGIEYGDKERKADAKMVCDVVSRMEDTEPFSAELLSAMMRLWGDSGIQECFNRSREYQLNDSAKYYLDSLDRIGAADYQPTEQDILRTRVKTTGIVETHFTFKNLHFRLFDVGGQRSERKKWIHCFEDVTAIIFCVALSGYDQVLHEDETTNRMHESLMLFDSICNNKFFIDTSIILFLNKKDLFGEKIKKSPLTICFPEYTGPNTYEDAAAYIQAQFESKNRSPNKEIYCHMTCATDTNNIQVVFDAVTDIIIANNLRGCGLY
HSV replic up: HSV replication enhancement; HSV replication augmentation in cells, fold increase; maximum fold increase; actives 0.005% (n = 220,000);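 active = peak rise of 1.5-fold or more in the series; inconclusive = self-fluorescent or not available for retest; tested in PC3 cells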;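 note: first round at 10 µM; read as green reporter fluorescence; hits show the peak of a series up to 25 µM; 1 = signal of infected wells without compound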
INS promoter inh cell count: recorded beside INS promoter inh, whose call it bears; normalized cell count, %; measured here: cell count, toxicity; reference of the scale not given here;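 cells exposed to compound for 48 h; stained nuclei by imaging scaled within each plate; lower means fewer cells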
HSV replic up primary fold: also measured in HSV replic up; calls as there; fold increase; compound at 10 µM; measured here: primary screen fold increase 10 uM; tested in PC3 cells;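 GFP signal in the first replicate; 1 = infected wells without compound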
Starred values were filed as active, the others as inactive; i = inactive; ? = inconclusive; nt = not tested or not shown; & = joins results of further samples.

Preview, 2 compounds:
SMILES	INS promoter inh	INS promoter inh cell count	GALR2 ag	PKD1 inh	RGS16-Gao	HSV replic up	HSV replic up primary fold
CC(=O)Nc1cccc(-c2csc(NCc3ccccc3)n2)c1	nt	nt	nt	2	105	i	0.92
Cc1ccc(-c2cc(-c3nnc(SCC(=O)NCC(C)C)n3N)c3ccccc3n2)cc1	45	91	-1.4	-2	109	i	0.92

Results, from the first entry:
SMILES	INS promoter inh	INS promoter inh cell count	GALR2 ag	PKD1 inh	RGS16-Gao	HSV replic up	HSV replic up primary fold
CC(=O)Nc1cccc(-c2csc(NCc3ccccc3)n2)c1	nt	nt	nt	2	105	i	0.92
Cc1ccc(-c2cc(-c3nnc(SCC(=O)NCC(C)C)n3N)c3ccccc3n2)cc1	45	91	-1.4	-2	109	i	0.92
O=C(CCC(=O)OCC(=O)c1ccc(-c2ccccc2)cc1)Nc1cccc(Cl)c1	22	106	-0.5	-1	103	i	0.64
O=C(CSc1nnc2c3cc(F)ccc3nc(-c3ccccc3)n12)N1CCOCC1	-13	108	-0.1	-2	nt	nt	nt
O=c1c(Cc2ccc(Cl)cc2Cl)c(O)ccn1Cc1ccc(Cl)cc1	-52	58	-0.8	-3	99	i	0.89
CC(=O)N1CCC(=NNS(=O)(=O)c2cccc([N+](=O)[O-])c2)CC1	-36	79	-2.4	-4	100	i	0.98
COc1ccc(/C=C/C(=O)NC(=S)Nc2ccc(S(=O)(=O)Nc3ccc(OC)nn3)cc2)cc1	nt	nt	-0.1	-2	105	i	0.92
O=C(Nc1ccccc1)C1=C[C@@H](c2ccc(C(F)(F)F)cc2)C[C@@H](OCc2ccc(CO)cc2)O1	nt	nt	nt	11	82	i	1
CCn1cc(Br)c(C(=O)Nc2ccc(Cl)c(Cl)c2)n1	28	128	-1.9	2	106	i	0.94
CC(=O)Nc1cccc(N2CCCC2=O)c1	-13	102	-0.3	-2	103	i	0.88
CC(C)(C)c1cc(NC(=O)c2cccnc2)no1	-25	125	-3.2	2	102	i	1
O=C(CSCc1c(Cl)cccc1Cl)Nc1ccc2c(c1)OCO2	46	121	-1.4	-5	94	i	0.98
CCCCCCNC(=O)N1C/C=C\C(c2ccc(OC)cc2)N(Cc2ccc(F)cc2)C(=O)C1 (stereo not drawn)	nt	nt	nt	nt	96	i	0.98
CCOc1ccc(S(=O)(=O)N2CCN(c3ccccc3)CC2)c2cccnc12	50	63	-1.4	-14	94	i	0.87
CCOC(=O)c1ccc(NC(=O)Nc2cc(C)on2)cc1	-16	207	0.2	-4	98	i	1.1
COc1cc(/C=C2\SC(=N)N(c3ccc4c(c3)OCO4)C2=O)cc(OC)c1O	38	100	-1.6	-8	87	?	nt
CC1(C)CC2(CCO1)OC(=O)CC2C(=O)Nc1ccc(Cl)cc1[N+](=O)[O-] (stereo not drawn)	nt	nt	nt	nt	104	i	0.94
Cc1ccc(C(C)C)c(OCC(=O)N/N=C/c2cccn2C)c1	nt	nt	nt	nt	102	i	1
CNC(=O)/C(C#N)=C\c1cc(C)n(-c2ccc(N3CCOCC3)cc2)c1C	nt	nt	nt	-3	94	i	1.1
CCOc1ccc(NC(=O)COC(=O)Cn2cnnn2)cc1OCC	34	108	-2.6	-6	101	i	0.9
Cc1ccc2cc(CCl)c(Cl)nc2c1	nt	nt	nt	nt	102	i	0.9
CCOC(=O)c1cccc(NC(=O)C2CCN(S(=O)(=O)c3cnc[nH]3)CC2)c1	nt	nt	-2.3	-6	81	i	0.79
CC1(C)NC(=O)N(CC(O)COc2ccccc2C(=O)N2CCCCC2)C1=O (stereo not drawn)	nt	nt	-0.8	-15	11	i	1
O=C(Nc1ccc(NC(=O)c2ccccc2O)cc1)Nc1ccc(F)cc1F	nt	nt	nt	nt	95	i	0.86
CC(=O)Oc1ccc(-c2csc(Nc3cccnc3)n2)cc1	-8	48	-0.6	-3	98	i	0.98
CCOC(=O)N1CCC(NC(=O)CC(NS(=O)(=O)c2ccc(C)cc2)c2ccco2)CC1 (stereo not drawn)	-6	137	-0.1	-8	100	i	0.91
O=C(O)c1cccc(N2C(=O)C3C4C=CC(C4=C(c4ccccc4)c4ccccc4)C3C2=O)c1 (stereo not drawn)	55	104	nt	-4	75	i	0.99
COc1ccc(-c2[nH]ncc2C=O)cc1	60*	131*	-1.1	4	107	i	0.94
O=C(CCC(=O)OCC(=O)c1ccccc1)Nc1cccc(Cl)c1	40	180	-0.8	-5	102	i	0.89
CCOC(=O)C1C(=O)NC(c2ccccc2)=NC1c1ccc(O)c(OC)c1 (stereo not drawn)	nt	nt	nt	-9	99	i	1.1
CCOC(=O)C1=C(O)/C(=C\c2ccc(CNC(=O)C(=O)Nc3ccccc3)o2)N=C1C	-57	76	-1.2	2	86	i	0.88
Cc1cccn2c(=O)c3cc(S(=O)(=O)c4ccccc4)c(=N)n(Cc4ccco4)c3nc12	-35	128	nt	-3	121	i	0.79
COc1cc(C(NC(C)=O)NC(C)=O)ccc1OCc1ccccc1	25	63	nt	3	95	i	0.95
COCCNC(=S)N1CCc2cc(OC)c(OC)cc2C1COc1ccc(C(C)C)cc1 (stereo not drawn)	nt	nt	-0.7	-11	100	i	0.9
Cc1c(C#N)c2ccccc2n1CC(=O)N1CCCC1	nt	nt	-2.0	-8	99	i	0.78
O=C(OCC1OC(n2ccc(=O)[nH]c2=O)C(O)C1OC(=O)c1ccccc1)c1ccccc1 (stereo not drawn)	-10	120	1.8	-5	108	i	0.96
O=C(C[n+]1cccc2ccccc21)c1ccc(NC(=O)c2ccccc2)cc1	nt	nt	nt	-2	123	i	1.1
Cc1ccnc2nc(C(=O)NCCc3ccc(F)cc3)nn12	-31	94	-1.3	-6	106	i	1.1
Cc1cc(C)cc(OCC(=O)Nc2ccccc2C(=O)NCc2ccco2)c1	-14	132	2.7	2	100	i	0.98
COc1ccc(C(=O)OCC(=O)NCCCc2ccccc2)cc1[N+](=O)[O-]	nt	nt	nt	-5	99	i	0.96
COc1cc(NC(=O)c2cc(-c3cccnc3)nc3ccc(Br)cc23)cc(OC)c1	nt	nt	nt	0	103	i	0.81
Cn1c(NNC(=O)CCC2CCCCC2)cc(=O)n(C)c1=O	-22	105	-1.7	5	88	i	1
Cc1nc2nc[nH]n2c(=O)c1CCOC(=O)c1c(F)cccc1F	nt	nt	nt	-2	103	i	1
CCOCCCNS(=O)(=O)c1ccc(NC(=O)c2ccc([N+](=O)[O-])cc2Cl)cc1	29	139	-0.3	-10	105	i	0.99
O=C(NCCN1C(=O)S/C(=C\c2cccnc2)C1=O)C1=NN(c2ccccc2)C(=O)CC1	nt	nt	nt	11	102	i	0.83
O=C(O)CCCn1cc(NC(=O)c2cccc(F)c2)cn1	-64	31	nt	2	96	i	0.94
Cc1sc(N2C(=O)C3C4C=CC(C4)C3C2=O)c(C#N)c1C (stereo not drawn)	-7	118	-0.4	-6	98	i	1
CCc1ccc(N(CC(=O)Nc2ccc(NC(C)=O)cc2)S(=O)(=O)c2ccccc2)cc1	50	141	-1.0	1	99	i	0.95
O=C(CO/N=C/c1ccc(OC(F)F)cc1)NCc1ccco1	nt	nt	nt	-7	100	i	0.86
Cc1[nH]c2ccc(-c3nnc(SCC(=O)NCc4ccco4)n3Cc3ccccc3)cc2c1C	14	142	-0.1	-4	70	i	0.97
Cn1c(NCCCN2CCOCC2)nc2c1c(=O)n(Cc1ccc(Cl)c(Cl)c1)c(=O)n2C	nt	nt	-1.5	-1	101	i	0.65
O=S(=O)(c1ccc(N2CCN(CCO)CC2)nc1)N1CCCCC1	23	106	22*	13	138	i	0.92
CN(C)c1nc(NCc2ccccc2)nc(Oc2ccc(=O)[nH]n2)n1	27	133	-3.3	-6	91	i	0.9
CCCCC(CCC(=O)O)(C(=O)OCC)c1csc(N)n1 (stereo not drawn)	0	93	-3.4	2	105	i	1
O=C(NCC1CCCO1)c1cc(-c2ccncc2)nc2ccc(S(=O)(=O)N3CCOCC3)cc12 (stereo not drawn)	38	79	-1.3	-4	101	i	0.9
CCOC(=O)CN(C(=O)Cn1nnc(-c2ccc(C)cc2)n1)C(CC)C(=O)NC1CCCC1 (stereo not drawn)	nt	nt	-0.7	2	104	i	1
C/C(=N\O)C1CC(CC(=O)O)C1(C)C (stereo not drawn)	nt	nt	nt	nt	107	i	0.84
Cc1cc(C)c(O)c(-c2n[nH]c3c2C(c2cccc(O)c2)N(Cc2ccco2)C3=O)c1 (stereo not drawn)	nt	nt	nt	nt	105	i	0.92
COc1ccc2c(c1)c(/C=N/Nc1nc3ccccc3[nH]1)c(C)n2C	nt	nt	nt	nt	100	i	0.64
CCOc1ccccc1C1C(C(N)=O)=C(C)Nc2nc(CCCO)nn21 (stereo not drawn)	nt	nt	-2.0	-8	110	i	1

An excerpt from above in order of their number in HSV replic up primary fold, descending.
compound,HSV replic up primary fold
Cc1[nH]c2ccc(-c3nnc(SCC(=O)NCc4ccco4)n3Cc3ccccc3)cc2c1C,0.97
O=C(CO/N=C/c1ccc(OC(F)F)cc1)NCc1ccco1,0.86
Cn1c(NCCCN2CCOCC2)nc2c1c(=O)n(Cc1ccc(Cl)c(Cl)c1)c(=O)n2C,0.65

Remaining list, next part.
SMILES	INS promoter inh	INS promoter inh cell count	GALR2 ag	PKD1 inh	RGS16-Gao	HSV replic up	HSV replic up primary fold
Cc1ccc(Cn2ccc(NC(=O)c3nn(C)cc3Cl)n2)cc1	nt	nt	-0.8	3	98	i	1.2
Cc1nc(-c2ccc3c(c2)OCCO3)cs1	nt	nt	nt	4	99	i	1.1
O=C(c1ccco1)N1CCN(c2cccc(Cl)c2)CC1	-32	96	1.6	0	103	i	0.99
COc1ccc(NC(=O)c2cc(CC(C)C)on2)cc1OC	40	108	-1.4	-2	102	i	1
Cn1cccc1Cc1nnc(SCC(=O)NCc2ccccc2)n1-c1ccc(F)cc1	nt	nt	-1.9	-2	149	i	0.81
COc1ccc(C2OCC3(O)C(c4ccc(OC)c(OC)c4)OCC23)cc1OC (stereo not drawn)	nt	nt	nt	nt	95	i	0.96
Cc1cc(C)c(C)c(S(=O)(=O)N2CCN(C(=S)NCC3CCCO3)CC2)c1C (stereo not drawn)	nt	nt	nt	-7	101	i	0.95
O=C(Cn1c(=O)oc2cc(S(=O)(=O)N3CCCC3)ccc21)N1CCN(c2ccccc2)CC1	nt	nt	-1.9	0	101	i	0.88
CCOC(=O)C1(Cc2ccc(Cl)cc2)CCN(Cc2cnc(N)nc2)CC1	nt	nt	nt	0	99	i	0.9
O=C(O)C1CC=CCC1C(=O)Nc1ccccc1C(=O)N1CCN(c2ccccc2)CC1 (stereo not drawn)	4	81	-1.8	-8	100	i	1
O=C(COc1ccccc1)Nc1nccs1	19	110	-1.4	-8	nt	i	0.83
N#Cc1nnn(-c2ccc(Cl)cc2)c1N	nt	nt	nt	-15	101&106	i	1&0.97
Cc1noc(C)c1COc1ccc(C(=O)OCC(=O)N2CC3(C)CC2CC(C)(C)C3)cc1 (stereo not drawn)	14	102	-0.5	2	99	i	0.95
O=C(CSc1nnc(CNc2cccc(C(F)(F)F)c2)n1Cc1ccco1)NCc1ccco1	-92	78	-1.9	-5	96	i	1
CCOc1c(Cl)cc(C(=O)Nc2ccccc2C(=O)O)cc1Cl	-14	68	0.0	-4	100	i	0.75
Nc1nnc(SCC(=O)Nc2ccc(Cl)c(C(=O)O)c2)s1	20	122	nt	0	107	i	0.95
O=C(NCc1ccc(-c2csnn2)cc1)C1CC1	nt	nt	nt	nt	99	i	1
Cc1cccc(N=c2c([N+](=O)[O-])nn(-c3ccc(Cl)cc3)n2O)c1	nt	nt	nt	15	102	i	1.1
CCOC(=O)CCNCc1ccc(OC)c(OC)c1	nt	nt	nt	nt	110	i	1.1
COc1ccc(NC(=O)COC(=O)CNS(=O)(=O)c2ccc(F)c(F)c2F)cc1OC	-21	116	0.6	-12	132	i	1
Cc1ccc(C(=O)NC2CCS(=O)(=O)C2)cc1S(=O)(=O)N1CCOCC1 (stereo not drawn)	-26	270	-5.7	9	98	i	1
Cn1cc([N+](=O)[O-])c(C(=O)Nc2ccn(Cc3c(F)c(F)cc(F)c3F)n2)n1	57	96	-0.3	-1	65	i	0.66
O=C(Cc1ccccc1)NC(Nc1cccc2ccccc12)C(Cl)(Cl)Cl (stereo not drawn)	nt	nt	-1.0	1	97	i	0.91
Cc1cccn2c(=O)c3cc(C(=O)NCCCN4CCCC4=O)n(C)c3nc12	0	60	0.5	-14	101	i	1

Some of these compounds in order of molar mass, falling:
SMILES	INS promoter inh	INS promoter inh cell count	GALR2 ag	PKD1 inh	RGS16-Gao	HSV replic up	HSV replic up primary fold
COc1cc(/C=C2\SC(=N)N(c3ccc4c(c3)OCO4)C2=O)cc(OC)c1O	38	100	-1.6	-8	87	?	nt
Cc1cccn2c(=O)c3cc(C(=O)NCCCN4CCCC4=O)n(C)c3nc12	0	60	0.5	-14	101	i	1
CNC(=O)/C(C#N)=C\c1cc(C)n(-c2ccc(N3CCOCC3)cc2)c1C	nt	nt	nt	-3	94	i	1.1

Source: PubChem BioAssay
